# Hsc70 ATP site = Hsc70 inhibitors, probe displacement, primary screen, biochemical, fluorescence polarization (AID 568); Hsc70 fluorescence polarization, probe displacement; higher % means a stronger effect; strong numbers were not always called active; 83,000 tested, under 10 active; displacement, % at 20 µM, or IC50 in µM where a hit was titrated;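 active means displacement above 50% without optical interference and an IC50 on retest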;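 further: ATPase domain with a fluorescein-tagged ATP probe; 0% = vehicle and 100% = excess ADP; read after one hour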
# WNV NS2B-NS3 inh = inhibitors of West Nile virus NS2B-NS3 protease. WNV NS2B-NS3 protease, fluorogenic substrate Ex360/Em465; active compounds read low. P06935. z-score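 (tested at a level between 10 and 100 µM)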. 65,000 tested, 0.18% active;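 active means z-score at -3 or under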;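 further: score is relative to mean and spread of the compound wells of a plate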
# Target sequence (P06935 1371-1501 limits assumed): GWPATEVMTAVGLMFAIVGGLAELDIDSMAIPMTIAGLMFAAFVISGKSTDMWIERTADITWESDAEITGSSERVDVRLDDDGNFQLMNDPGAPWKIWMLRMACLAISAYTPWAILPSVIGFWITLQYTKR
# Target sequence (P06935 1502-1679 limits assumed): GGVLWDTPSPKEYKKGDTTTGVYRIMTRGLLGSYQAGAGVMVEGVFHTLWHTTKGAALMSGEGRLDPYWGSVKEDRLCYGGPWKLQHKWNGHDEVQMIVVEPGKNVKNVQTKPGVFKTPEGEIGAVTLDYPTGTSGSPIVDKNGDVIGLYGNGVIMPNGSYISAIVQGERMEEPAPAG
# MT1-MMP reporter = inhibitors of MT1-MMP promoter transcription, cell-based, luciferase reporter, luminescence (AID 618) | MT1-MMP promoter luciferase reporter cells, luminescence | 87,000 tested, 0.62% active | calls from a first round at 10 µM; hits with a dose series show EC50 in µM;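 active means over half of the reporter light lost at 10 µM or EC50 under 50 µM; inactive means the rest and hits that failed the dose series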;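 further: actives suppress MT1-MMP promoter-driven transcription so potencies describe inhibitors; HT1080 fibrosarcoma cells; overnight exposure; toxic or luciferase-blocking compounds were not removed from the actives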
# The depositor's hits bear a star; i = inactive; / = not tested or not shown. A portion of the library; the hit share may differ from the screen's.
# Results follow in this order: Hsc70 ATP site	WNV NS2B-NS3 inh	MT1-MMP reporter
O=C1c2ccccc2C(=O)N1CC#CCN1CCN(C2CCCCC2)CC1
 : 0.2%	0.41	i
CCCCn1nnnc1NCc1cccnc1
 : 4.3%	0.07	i
N#Cc1cc(-c2ccccc2)nn1-c1ccccc1
 : -2.6%	1.42	i
N#Cc1c(-c2ccco2)nc(SCC(=O)Nc2cccc(Cl)c2)[nH]c1=O
 : 2.6%	-0.39	i
CC1CCN(S(=O)(=O)N2CCC(C(=O)N3CCC(N(C)CC4CCCO4)CC3)CC2)CC1 (stereo not given)
 : -0.3%	0.13	i
COC(=O)COc1ccc(S(=O)(=O)Nc2cc(OC)ccc2OC)cc1
 : -6.1%	0.05	i
CCC(CC)C(=O)Nc1cccc(C(=O)NCCc2ccc(S(N)(=O)=O)cc2)c1
 : 1.3%	/	i
CCOC(=O)CN1C(=O)C(O)=C(C(C)=O)C1c1ccc(F)cc1 (stereo not given)
 : -4.1%	1.41	i
CCn1c(SCC(N)=O)nnc1-c1ccc(OC)c(OC)c1
 : -4.3%	1.69	i
CCOC(=O)Cn1c(CN2CC(C)OC(C)C2)nc2c1c(=O)n(C)c(=O)n2C (stereo not given)
 : 0.7%	-0.01	i
CCOC(=O)c1sc(NC(=O)CSc2nnc(C(C)C)n2CC)nc1C
 : 1.3%	-0.72	i
CCCNC(=O)C1CC(=O)N(c2ccc(OCC(=O)Nc3cccc(C)c3C)cc2)C1 (stereo not given)
 : -2.0%	-0.28	i
Cc1cc(C)n(CCc2nc(-c3ccc(C)o3)cs2)n1
 : 0.6%	/	i
CCOC(=O)Cn1c(C)cc(=O)c2cccc(C)c21
 : -2.5%	-0.84	i
O=C1[C@@H]2[C@H](C(=O)N1Cc1ccco1)[C@H]1C=C[C@@H]2C1
 : -0.7%	/	i
CCOc1cc(S(=O)(=O)n2cc(-c3ccc(F)cc3)c(N)n2)cc(OCC)c1OCC
 : 0.4%	-0.29	i
CCC1=NNc2cccc3c(OC)ccc1c23
 : 1.3%	/	i
CCOc1ccc(Nc2nc(Cc3nnc(SCC(=O)c4ccc(C)c(C)c4)o3)cs2)cc1
 : 2.3%	/	i
CCn1cc(C(=O)NCc2cccs2)c(=O)c2cc(S(=O)(=O)N3CCOCC3)ccc21
 : 1.0%	1.24	i
O=c1c2c3nc4ccccc4nc3n(Cc3ccccc3)c2ncn1Cc1ccco1
 : -4.6%	-0.14	i
COc1cccc(N2CCN(CC(=O)NCc3cccs3)CC2)c1
 : 4.2%	-0.7	i
CCOC(=O)c1c(CC(C)C)csc1NC(=O)C(C)C
 : -2.1%	/	i
CCOc1ccc(CCNC(=O)Cc2nn[nH]n2)cc1OCC
 : 0.8%	-0.68	i
O=C1/C(=N\O)Cc2ccccc21
 : -3.1%	/	i
Cn1c2c(c3ccccc31)CCSC2=O
 : -4.4%	-0.06	i
COC(=O)c1c(C)oc2cc(Br)c(OCC(=O)C(C)(C)C)cc12
 : 1.3%	-1.22	i
O=C(CN1C(=O)c2ccccc2C1=O)N1CCCCC1
 : -1.0%	0.02	i
Cc1ccc(NC(=O)Cn2nnc(C(=O)NCc3ccccc3)c2N)cc1C
 : 4.5%	0.33	i
COCCNc1nnc(SCC(=O)c2ccc3c(c2)OCO3)s1
 : 6.8%	0.17	i
Cc1cc(Cl)ccc1OCc1n[nH]c(=S)n1C1CCCCC1
 : 0.2%	/	i
CC1CC(=O)C2=C(C1)OC(N)=C(C#N)C2c1coc2ccccc2c1=O (stereo not given)
 : 5.2%	-0.54	i
CSCCC(NS(=O)(=O)/C=C/c1ccccc1)C(=O)N1CCC(C)CC1 (stereo not given)
 : -1.0%	-1.25	i
CC(=O)NC1CC(C)(C)N(OC(C)=O)C(C)(C)C1
 : -7.5%	0.34	i
CCOC(=O)N1CCN(C(=O)c2n[nH]c(=O)c3ccccc23)CC1
 : 5.0%	0.14	i
CC1CCN(S(=O)(=O)c2cccc(-c3csc(-c4cccnc4)n3)c2)CC1
 : 4.4%	/	i
O=C(CSc1nc2c(c(=O)n1-c1ccccc1)SCC2)N1CCN(c2ccccc2)CC1
 : 5.9%	0.5	i
CCOC(=O)c1[nH]cnc1C(=O)Nc1cccc(N)n1
 : -5.6%	-2.38	i
Cn1nc(C(C)(C)C)cc1C(=O)NCc1ccc(N2CCCC2=O)cc1
 : 2.9%	-0.76	i
N#Cc1cn(CC(=O)NCc2cccnc2)c2ccccc12
 : -5.3%	0.58	i
COc1ccccc1OCCSc1nnnn1C1CCCCC1
 : 3.4%	/	i
CC1Cc2ccccc2N1C(=O)C1CCCN1S(=O)(=O)c1ccc(Cl)cc1 (stereo not given)
 : -1.4%	0.26	i
CCCC(=O)Nc1ccc(OCC(O)CNC(C)C)c(C(C)=O)c1 (stereo not given)
 : 0.1%	0.18	i
Cc1ccc(S(=O)(=O)NCCOc2nc(N3CCOCC3)nc(N3CCOCC3)n2)cc1
 : -3.3%	/	i
CSc1nc(-c2ccc(C)cc2)[nH]c1S(=O)(=O)c1ccccc1
 : 1.3%	/	i
CCCC(C(=O)NC1CCCC1)N(Cc1ccc2c(c1)OCO2)C(=O)c1snc(C(N)=O)c1N (stereo not given)
 : 2.5%	/	i
COC(=O)CNC(=O)c1ccc(=O)oc1
 : -5.9%	-0.37	i
CC1(C)Cc2[nH]c(=O)c(C#N)cc2CS1
 : 0.3%	-0.59	i
COc1ccc(NC(=O)CSc2nnc(-c3ccccn3)n2N)c(OC)c1
 : -5.6%	-0.41	i
COCCCNC(=O)C1CCN(S(=O)(=O)N(CC(C)C)CC(C)C)CC1
 : 2.0%	-1.36	i
O=C(CN1C(=O)c2ccccc2S1(=O)=O)N1CCN(c2ccccc2)CC1
 : -3.4%	-1.16	i
CCC(=O)N1CCc2cc(S(=O)(=O)NC(C(=O)Nc3cccc(C)n3)C(C)C)ccc21 (stereo not given)
 : -1.9%	0.37	i
CCOc1ccc(-c2nnc(SCC(=O)N3CCN(c4ccccc4)CC3)o2)cc1
 : -3.7%	0.43	i
CCOc1cccc(NCc2cc3c(C(C)(C)C)nn(-c4ccccc4)c3[nH]c2=O)c1
 : -0.6%	/	i
O=C(c1ccccc1/S(=N/S(=O)(=O)c1ccccc1)N1CCOCC1)N1CCOCC1 (stereo not given)
 : -1.1%	0.36	i
Cc1cc(C(=O)Cn2nnc3ccccc3c2=O)c(C)n1-c1c(C)n(C)n(-c2ccccc2)c1=O
 : -8.8%	0.69	i
CC(C)CNC(=O)c1cccc(Cn2cc(Cl)cn2)c1
 : 4.7%	-0.1	i
O=C(O)CCN1C(=O)c2ccncc2C1=O
 : 4.8%	-0.05	i
COc1ccc(NC(=O)C2C(=O)N(CCO)C3(C)CC2c2ccccc2O3)cc1 (stereo not given)
 : -3.6%	1.32	i
CN1c2ccccc2C(C)(C)C12C=Cc1cc(O)ccc1O2 (stereo not given)
 : -72.0%	-0.84	i
CCCCCOc1ccccc1C(=O)NCC(=O)O
 : -2.2%	0.49	i

# (cont.)
# Results follow in this order: Hsc70 ATP site	WNV NS2B-NS3 inh	MT1-MMP reporter
CC(=O)NC(CCS(C)(=O)=O)C(=O)Nc1ccc(Oc2ccccc2)cc1 (stereo not given)
 : 1.0%	-0.59	i
COc1ccc(OCCN(C)Cc2ccccc2)cc1
 : -4.8%	-0.41	i
O=C1c2ccccc2C(=O)c2c1ccc(C(=O)N1CCCCC1)c2NCCO
 : 0.6%	/	i
CCCCN(CCCC)C(=O)CSc1nnc2n(C)c(=O)c3c4c(sc3n12)CCCC4
 : 2.8%	-1.11	i
O=C(O)C1CSC(c2ccncc2)N1 (stereo not given)
 : -3.7%	0.89	i
CCOC(=O)c1cnc(SCc2cccc(C)c2)nc1N
 : -2.4%	/	i
N=c1n(CCN2CCCCC2)c2ccccc2n1CC(O)c1cccc(Br)c1 (stereo not given)
 : -1.9%	-0.6	i
Cc1nn(C)c(C)c1S(=O)(=O)N(CC(=O)NCc1ccco1)c1ccc(C(C)C)cc1
 : 0.9%	2.43	i
Cc1cc(C(=O)OCC(=O)NC(=O)NC(C)(C)C)c(C)o1
 : -7.7%	-0.73	i
Cc1cc(C(=O)OCC(=O)Nc2ccccc2F)c(C)o1
 : -1.1%	/	i
CCOc1cccc(C2C(C#N)=C(N)Oc3cc(C)n(Cc4ccccn4)c(=O)c32)c1OCC (stereo not given)
 : -6.9%	-0.95	i
CCOc1ccc2nc(SCC(=O)NCc3ccco3)sc2c1
 : -0.1%	-1.29	i
CC(C)(C)NC(=O)CSC(=Nc1cccc(F)c1)NC#N
 : -1.3%	/	i
COc1ccc(OCC(=O)OCCN2C(=O)c3ccccc3C2=O)cc1
 : 1.6%	-0.04	i
CCC(C)(C)n1nnnc1C(CC(C)C)N1CCC(C(N)=O)CC1 (stereo not given)
 : -3.9%	0.35	i
c1ccc(-c2nc3ccccc3c3nncn23)cc1
 : -1.2%	-0.48	i
CCN1CCN(c2nc3sc4c(c3c3ncnn23)CC(C)CC4)CC1 (stereo not given)
 : 2.1%	0.48	i
COCC(=O)OCn1nnc2ccccc2c1=O
 : -5.8%	1.78	i
CCc1ccccc1N1CC23C=CC(O2)C(C(=O)O)C3C1=O (stereo not given)
 : 2.2%	0.00802	i
O=C1/C(=C/c2cccnc2)Oc2cc(OS(=O)(=O)c3ccc(Cl)cc3)ccc21
 : -3.2%	/	i
O=c1cc2c(nn1Cc1cccc(Cl)c1)-c1ccccc1CC2
 : -3.1%	/	i
COc1ccc(C2Sc3nncn3N2Cc2ccc(C#N)cc2)cc1 (stereo not given)
 : 6.7%	0.01	i
CN(C)c1ccc(P(=O)(OC2CCCCC2)C(O)c2cccnc2)cc1 (stereo not given)
 : -2.6%	0.33	i
O=C(CSc1nc2ccccc2n1CCc1ccccc1)NC1CCS(=O)(=O)C1 (stereo not given)
 : -0.7%	/	i
O=C(NC1CCN(C(=O)NC2CCCCC2)CC1)c1ccco1
 : -4.3%	-1.19	i
CCOC(=O)c1c(C)n(C)c2ccc(OCC(O)Cn3nc(C)c(Br)c3C)cc12 (stereo not given)
 : -3.1%	0.98	i
CCOC(=O)C1CCCCN1Cc1ccc(C(F)(F)F)cc1 (stereo not given)
 : -1.1%	/	i
CCc1ccccc1NC(=O)c1cnccn1
 : -4.0%	0.18	i
CC1=CC=CC2=NC(=O)CC(C)(C(=O)N(CC(=O)NC(C)C)C3CCCC3)N12 (stereo not given)
 : 1.1%	-0.06	i
COc1ccccc1CNC(=O)C1CCN(c2nc3ccccc3o2)CC1
 : -0.7%	1.43	i
CCCn1c(SCC(=O)Nc2nnc(-c3ccccc3)s2)nnc1-c1ccccn1
 : 0.7%	0.68	i
COc1cc(-n2c3nc4ccccc4nc3c3c(=O)n(Cc4ccco4)cnc32)cc(OC)c1OC
 : 2.8%	-0.37	i
CN=Cc1cc(-c2ccccc2)sc1O
 : -3.1%	-0.38	i
CCc1nc(N2CCOCC2)c(C#N)c2c1CCCC2
 : -8.0%	1.86	i
Cc1onc(-c2ccccc2)c1C(=O)Nc1ccnn1C1CCCCC1
 : -2.8%	0.09	i
O=C(O)C1CCCCC1C(=O)NCCc1ccccc1 (stereo not given)
 : -1.9%	-0.47	i
CCOc1cc(C(=O)OCC(=O)c2c(C)[nH]c3ccccc23)ccc1OCC(=O)N1CCOCC1
 : -2.3%	0.32	i
Cc1nnc2ccc(Oc3ccc(-c4ccccc4)cc3)nn12
 : 4.1%	0.32	i
N#Cc1cccc(NC(=O)COc2ccc(-n3ccnc3)cc2)c1
 : 5.0%	-0.14	i
CC(=O)N1CCN(C(=O)CNc2cc(C(F)(F)F)ccc2OCC(F)(F)F)CC1
 : -0.1%	1.24	i

# Some of the entries so far, field by field:
CCc1ccccc1NC(=O)c1cnccn1
- Hsc70 ATP site: -4.0%
- WNV NS2B-NS3 inh: 0.18
- MT1-MMP reporter: i

CC1=CC=CC2=NC(=O)CC(C)(C(=O)N(CC(=O)NC(C)C)C3CCCC3)N12 (stereo not given)
- Hsc70 ATP site: 1.1%
- WNV NS2B-NS3 inh: -0.06
- MT1-MMP reporter: i

COc1ccccc1CNC(=O)C1CCN(c2nc3ccccc3o2)CC1
- Hsc70 ATP site: -0.7%
- WNV NS2B-NS3 inh: 1.43
- MT1-MMP reporter: i

CCCn1c(SCC(=O)Nc2nnc(-c3ccccc3)s2)nnc1-c1ccccn1
- Hsc70 ATP site: 0.7%
- WNV NS2B-NS3 inh: 0.68
- MT1-MMP reporter: i

# New compounds follow:
# Results follow in this order: Hsc70 ATP site	WNV NS2B-NS3 inh	MT1-MMP reporter
COC(=O)CSc1nnc(CNC(=O)c2ccccc2OC)n1C
 : -1.9%	0.46	i
Cn1c(=O)[nH]c(=O)c2c1nc(NC1CCCCC1)n2CC(=O)NC1CCCCC1
 : 3.2%	-0.14	i
COc1ccc2nc(NC(=O)CN(c3ccc(C)cc3)S(=O)(=O)c3c(C)nn(C)c3C)sc2c1
 : -13.2%	0.41	i
CCn1c(O)c(/C=N/N=C/c2ccccc2)c2ccc(C3=NNC(=O)CC3)cc21
 : -20.7%	/	i
CCNc1nc(Oc2ccc(=O)n(-c3ccccc3)n2)nc(N(C)C)n1
 : -2.1%	/	i
COc1cccc(-n2nc(C(=O)N3CC(C)CC(C)C3)c3ccccc3c2=O)c1 (stereo not given)
 : -0.8%	/	i
Cc1ccc(Cc2cnc(N)s2)o1
 : -3.5%	0.25	i
C/C(Cl)=C\CSc1nnc2n(N)c(=O)c3ccccc3n12
 : 0.9%	-0.38	i

# From PubChem
